# Source: PubChem
# LASV entry inh = blocks Lassa virus binding to or entry into cells | actives 1.2% (n = 300,000) | Potency, µM (doses to about 37.9 µM), for inactives: at the highest dose activity change, negative = inhibition, most hits filed as inhibitors | Lassa virus pseudotype entry inhibition, cell reporter; control for the full effect not named in the record | AID 540256; active means well fitted inhibition curve with a large enough effect; inconclusive means small, poorly fitted or top-dose-only effect, or effect the other way; inactive means flat fitted curve, though single readings scatter; tested in HEK293 cells; further: on the % scale 0 is the no-effect control and ±100 the full control effect; nearly all actives have a fitted effect of over 50% in size; luciferase read-out
# Cruzain inh noDet = cruzain (T. cruzi) inhibition without detergent; P25779; purified cruzain, Z-FR-AMC fluorescence, no detergent; Potency, µM, without a hit: max response, negative = inhibition, hits mostly inhibitors; actives 2.3% (n = 200,000); active means well fitted curve in the direction sought with a large enough effect; inconclusive means small, poorly fitted or top-dose-only effect, or another doubt; inactive means no such curve, though single readings can be large; an effect the other way counts as inactive or inconclusive;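 further: plate controls were enzyme without inhibitor for no effect and buffer without enzyme for full effect; nearly all actives have a fitted effect of over 40% in size; top concentration of the series not given in the record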
# Target sequence (P25779 123-467 limits assumed): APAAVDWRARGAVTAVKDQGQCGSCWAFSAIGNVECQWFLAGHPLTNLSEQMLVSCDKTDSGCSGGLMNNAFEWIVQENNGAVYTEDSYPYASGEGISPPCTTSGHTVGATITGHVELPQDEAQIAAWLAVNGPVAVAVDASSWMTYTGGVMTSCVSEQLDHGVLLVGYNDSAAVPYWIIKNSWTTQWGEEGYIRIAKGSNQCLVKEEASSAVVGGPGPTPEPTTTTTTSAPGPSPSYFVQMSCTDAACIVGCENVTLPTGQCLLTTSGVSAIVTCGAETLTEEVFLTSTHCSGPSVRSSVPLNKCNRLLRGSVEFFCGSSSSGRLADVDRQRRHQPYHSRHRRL
#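 Purified cruzain at 1.5 nM, pre-incubated 15 min with compound at room temperature in 100 mM sodium acetate pH 5.5, 5 mM DTT, 0.00005% Triton X-100. Reaction started with 2 uM Z-FR-AMC; AMC fluorescence increase over 60 s gives rate.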
# SARS PLP yeast = SARS-CoV PLP inhibition in yeast; S. cerevisiae expressing SARS-CoV PLpro, growth rescue; control for the full effect not named in the record; Potency, µM (highest dose often 32.9 µM), without a hit: at the top dose activity, positive = growth rescue; actives 0.19% (n = 330,000); further: 0% is about no effect; nearly all actives have a fitted effect of over 55% in size; growth read by luminescence after 48 h
# NS1 inh = blocks influenza NS1 protein function; S. cerevisiae slowed by influenza A NS1, growth recovery by OD600; Potency, µM (titrated, usually from 46.1 µM), for the others: top-dose activity, positive = more growth; actives 0.4% (n = 270,000); further: actives are rising curves; nearly all actives have a fitted effect of over 50% in size
#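 Read-out: OD600 growth recovery of NS1-expressing budding yeast. Cells grown overnight at 30C in -URA glucose medium, washed, resuspended and diluted 1:100 in 2% galactose assay medium, pH 6.0. Same strain lacking NS1 served as positive control.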
# Cruzain Triton = inhibitors of Trypanosoma cruzi cruzain with detergent; P25779; purified cruzain, Z-FR-AMC fluorescence, 0.01% Triton; Potency, µM, for the others: max response, negative = inhibition, actives largely listed as inhibitors; actives 0.43% (n = 200,000); AID 1478; active means well fitted curve in the direction sought with a large enough effect; inconclusive means small, poorly fitted or top-dose-only effect, or another doubt; inactive means no such curve, though single readings can be large; an effect the other way counts as inactive or inconclusive;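 further: plate controls were neutral wells for no effect and buffer without enzyme for full effect; nearly all actives have a fitted effect of over 40% in size; top concentration of the series not given in the record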
#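 Cruzain (1.5 nM) preincubated 15 min at RT with compound in 100 mM sodium acetate pH 5.5, 5 mM DTT, 0.01% Triton X-100. Reaction started with 2 uM Z-FR-AMC; AMC fluorescence (ex 360/em 450 nm) change over 60 s gave rate.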
# 2A StopGo = lowers the luciferase signal of an FMDV 2A StopGo reporter. human cells with a luciferase reporter of 2A StopGo recoding; control for the full effect not named in the record. Potency, µM (top dose mostly 57.9 µM), inactives show at the highest dose signal change, negative = less light. actives 1.2% (n = 410,000); active = well fitted falling curve with a large enough effect; inconclusive = small, poorly fitted or top-dose-only effect; inactive = no such curve, though single readings can be large or run the other way; tested in HEK293T cells; further: on the % scale 0 is the no-effect control and ±100 the full control effect; nearly all actives have a fitted effect of over 45% in size; luciferase light after 4 h
# RE007 growth inh = less growth of the S. pombe RE007 Vpr strain; S. pombe RE007 Vpr strain, BacTiter-Glo ATP luminescence, 24 h; control for the full effect not named in the record; Potency, µM (top dose mostly 92.2 µM), inactives show top-dose activity change, negative = less growth; actives 0.21% (n = 360,000); AID 651644; active = well fitted falling curve with a large enough effect; inconclusive = small, poorly fitted or top-dose-only effect; inactive = no such curve, though single readings can be large or run the other way;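 further: on the % scale 0 is the no-effect control and ±100 the full control effect; nearly all actives have a fitted effect of over 50% in size; the assay follows cell death caused by Vpr and the record does not say whether a fall means rescue or toxicity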
#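 Fission yeast RE007 carrying one integrated HIV-1 vpr copy, seeded at OD 0.01 in PMG+AL medium with 23 nL pinned compound. Grown 24 h at 30 degrees; viability read by BacTiter-Glo luminescence after 5 min.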
# Marburg entry inh = blocks Marburg virus binding to or entry into cells. Potency, µM (doses to about 37.8 µM), inactives show at the highest dose activity change, negative = inhibition, actives largely listed as inhibitors. Marburg virus pseudotyped entry inhibition, cell reporter; control for the full effect not named in the record; about a third of the inactives were read at about 46 µM. actives 1.8% (n = 300,000); active = well fitted inhibition curve with a large enough effect; inconclusive = small, poorly fitted or top-dose-only effect, or effect the other way; inactive = flat fitted curve, though single readings scatter; tested in HEK293 cells; about a fifth of its hits are not listed in these tables; further: on the % scale 0 is the no-effect control and ±100 the full control effect; luciferase read-out
# The depositor's hits bear a star; ? = inconclusive; · = not tested or not shown; & = joins results of further samples; [ ] = remark or other dose. Unless noted, the call rests on the fitted dose curve; in most records, active means well fitted rising curve with a large enough effect; inconclusive means small, poorly fitted or top-dose-only effect; inactive means no such curve, though single readings can be large or run the other way. Potency means the concentration at half of the fitted maximal effect. Hits appear at their usual frequency. About 4.6% of those tested had a hit in this group.
SMILES,LASV entry inh,Cruzain inh noDet,SARS PLP yeast,NS1 inh,Cruzain Triton,2A StopGo,RE007 growth inh,Marburg entry inh
O=C(c1ccc([N+](=O)[O-])cc1)N1CCC(n2nnc3cc(F)ccc32)CC1,·,·,-1%,1%,·,5%,-6%,·
O=C(CN1C(=O)NC2(CCCCCC2)C1=O)NCc1cccs1,2%,-5%,-1%,1%,-0.8%,-2%,12%,-6%
Cc1ccc(OCc2nnc(SCC(=O)c3ccccc3)n2-c2ccccc2)cc1,?,?,-3%,15%,-6.5%,-18%,-12%,-6%
CCOC(=O)c1c(C)oc2nc(C)nc(NCCCN3CCN(c4ccc(F)cc4)CC3)c12,-5%[46.1 µM],-14%,·,·,-2.5%,-20%,·,·
Cc1cc(C)c(C(N)=O)c(Nc2ccc3c(c2)OCCO3)n1,16%,-8%,11%,4%,-0.7%,-2%,3%,?
Cc1csc(NC(=S)NC(=O)c2ccccc2)n1,21%[46.1 µM],·,-19%,-17%,·,35%[activator],-13%,?
COc1cccc(CNC(=O)C2=Cc3cccc(OC)c3OC2)c1,-2%[46.1 µM],·,-10%,-7%,·,9%,-5%,12%[46.1 µM]
Cc1cc(C)cc(-n2ncc3c2CCCC3NC(=O)CN2CCCC2=O)c1 (stereo not given),·,·,4%,-5%,·,-16%,9%,·
CCOC(=O)C1CCN(C(=O)c2cccnc2Oc2ccccc2)CC1,12%[46.1 µM],·,4%,1%,·,10%,-6%,?
CCCCCOCC(O)CCC(=O)NN (stereo not given),-5%,5%,-1%,13%,10%,-23%,-8%,2%
O=C1NC(=O)c2cc(Nc3ccccc3)c(Nc3ccccc3)cc21,?,20µM*,·,?,-5.7%,·,·,23µM*
Cc1ccc(C(=O)NC2CCN(S(=O)(=O)c3ccc(F)cc3)CC2)cc1,·,·,-2%,17%,·,-22%,0%,·
Cc1ccc(OCc2nnc(SCc3cc(=O)[nH]c4ccccc34)o2)cc1,-19%,-3%,-3%,-14%,4.5%,?,21%,-8%
Cc1ccc(N2C(=O)N(C(C)C)C(C)(C)CC2(C)O)cc1 (stereo not given),-8%,·,0%,-6%,·,-15%,3%,1%
Cc1ccc(/C=N/N(C)S(=O)(=O)c2ccc(C)cc2)cc1,·,·,-4%,-7%,·,?,2%,·
CCc1nnc(NC(=O)CSc2nnc(-c3cc4ccccc4cc3O)n2CC)s1,-1%,4%,-1%,-3%,-7.4%,?,4%,2%
CC(C)CN(CCNC(=O)c1cc(-c2cccs2)nc2ccccc12)CC(C)C,12%[46.1 µM],5%,·,·,-1.8%,-11%,·,-8%[46.1 µM]
CCOC(=O)c1cc(-c2ccccc2)n[nH]1,?,·,-1%,0%,·,70%[activator],11%,9%
Cc1nc(NC(=O)/C=C/c2ccco2)sc1C,1%,-4%,-20%,11%,-2.7%,28%,11%,-20%
C[C@@H]1CN(C(=O)c2nc3ccc(Cl)cn3c2CNCC[C@@H]2C[C@@H]3C=C[C@H]2C3)C[C@H](C)O1,-11%,·,1%,5%,·,-19%,4%,?
Brc1ccccc1/C=N/Nc1nc2ccccc2o1,10%,·,-9%,-42%,·,15%,-8%,15%[46.1 µM]
Cc1cc(C)cc(N2C(=O)C=CC2=O)c1,?,·,·,·,·,?,3.2µM*,?
CCC(=O)NC(C)C(c1cccs1)N1CCOCC1 (stereo not given),-20%,·,·,10%,·,14%,4%,4%
COc1cccc(NC(=O)CSc2ncc(S(=O)(=O)c3ccc(C)c(C)c3)c(=O)[nH]2)c1,·,1%,·,·,-13%,-21%,·,29%[46.1 µM]
COc1ccc(CCNC(=O)c2ccc(CNS(=O)(=O)c3cc(C)ccc3C)cc2)cc1OC,?,-2%,-6%,-7%,-4.6%,20µM*,8%,10µM*

# Another view of 6 compounds above:
Compound	LASV entry inh	Cruzain inh noDet	SARS PLP yeast	NS1 inh	Cruzain Triton	2A StopGo	RE007 growth inh	Marburg entry inh
O=C(CN1C(=O)NC2(CCCCCC2)C1=O)NCc1cccs1	2%	-5%	-1%	1%	-0.8%	-2%	12%	-6%
CCC(=O)NC(C)C(c1cccs1)N1CCOCC1 (stereo not given)	-20%	·	·	10%	·	14%	4%	4%
Brc1ccccc1/C=N/Nc1nc2ccccc2o1	10%	·	-9%	-42%	·	15%	-8%	15%[46.1 µM]
C[C@@H]1CN(C(=O)c2nc3ccc(Cl)cn3c2CNCC[C@@H]2C[C@@H]3C=C[C@H]2C3)C[C@H](C)O1	-11%	·	1%	5%	·	-19%	4%	?
Cc1ccc(OCc2nnc(SCc3cc(=O)[nH]c4ccccc34)o2)cc1	-19%	-3%	-3%	-14%	4.5%	?	21%	-8%
Cc1ccc(C(=O)NC2CCN(S(=O)(=O)c3ccc(F)cc3)CC2)cc1	·	·	-2%	17%	·	-22%	0%	·

# In the list so far, these have a furan ring, fused or not:
SMILES,LASV entry inh,Cruzain inh noDet,SARS PLP yeast,NS1 inh,Cruzain Triton,2A StopGo,RE007 growth inh,Marburg entry inh
CCOC(=O)c1c(C)oc2nc(C)nc(NCCCN3CCN(c4ccc(F)cc4)CC3)c12,-5%[46.1 µM],-14%,·,·,-2.5%,-20%,·,·
Cc1nc(NC(=O)/C=C/c2ccco2)sc1C,1%,-4%,-20%,11%,-2.7%,28%,11%,-20%

# Next part.
SMILES,LASV entry inh,Cruzain inh noDet,SARS PLP yeast,NS1 inh,Cruzain Triton,2A StopGo,RE007 growth inh,Marburg entry inh
C/C(=N\NC(=O)c1cccc(F)c1)c1cccc(NC(=O)c2ccc(F)cc2)c1,-23%,·,0%,-3%,·,18%,4%,?
COc1cc(NC(=O)C2CCN(c3cnccn3)CC2)cc(OC)c1,-7%,3%,-3%,0%,-4.0%,-12%&-21%,-16%,-4%&7%[46.1 µM]
CCCCNc1nc2c(c(=O)n(Cc3ccccc3)c(=O)n2C)n1C,-20%[46.1 µM],4%,1%,5%,-2.1%,-27%&-16%,17%,0%[46.1 µM]
CCO[C@H]1OC(C(=O)Nc2ccccc2)=C[C@@H](c2coc3ccccc3c2=O)[C@@H]1CCCO,·,·,0%,1%,·,-13%,18%,·
COc1cc2ccccc2cc1C(=O)NC(=S)Nc1cccc(C(=O)O)c1,12%[46.1 µM],·,-1%,-5%,·,32%[activator],47%,?
O=C(CCc1nnc(CCC2CCCCC2)o1)NCCc1cccnc1,·,·,0%,-2%,·,4%,-6%,·
CN(C)S(=O)(=O)c1cccc(NC(=O)c2cccc(NS(=O)(=O)c3ccccc3)c2)c1,?,·,-2%,18%,·,?,2%,?
C=CCSc1n[nH]c(-c2ccc(OCCCC)cc2)n1,·,6%,-21%,-94%,-6.7%,34%[activator],-6%,-5%
O=C(Cn1cc([N+](=O)[O-])ccc1=O)NCC(=O)Nc1ccc(F)c(F)c1F,4%[46.1 µM],·,10%,·,·,-5%,5%,-3%[46.1 µM]
NCCc1c(C(=O)O)[nH]c2ccc([N+](=O)[O-])cc12,·,·,-1%,-62%,·,-2%,0%,·
Cc1cccc2cc(C#N)c(SCC(=O)NCc3cccs3)nc12,-1%,6.3µM*,-18%,-2%,-2.5%,3%,-6%,1%
CC1(C)CC(=O)C=C(Nc2ccccc2C#N)C1,·,·,3%,-25%,·,-7%,-2%,·
O=C(NCCNC(=O)c1cc(Cl)ccc1Cl)c1cnccn1,24%[46.1 µM],·,-6%,-4%,·,-6%,1%,-7%[46.1 µM]
O=C(c1ccc2c(c1)N(Cc1ccc(F)cc1)C(=O)c1ccccc1S2(=O)=O)N1CCCCCC1,-23%[46.1 µM],7%,·,·,-2.3%,4%,·,-15%[46.1 µM]
Oc1ccc(Cl)c(Cl)c1,·,-9%,-1%,·,-4.1%,-1%,-18%,4%
Cc1ccc(NC(=O)NC2(C(=O)NCc3ccco3)CCCCC2)cc1,-16%,-9%,6%,7%,14%,10%,18%,0%
Nc1c(C(=O)OCC(=O)Nc2ccc(Cl)cc2[N+](=O)[O-])[nH]c(=O)[nH]c1=O,·,·,1%,0%,·,-3%,-3%,·
CCn1c(=O)n(CC)c2cc(N3CCCCC3)c(NC(=O)Nc3ccccc3Cl)cc21,?,?,·,·,-5.8%,-19%,·,·
O=C(CNC(=O)c1ccco1)OCc1ccccc1F,?,·,-13%,·,·,25%,7%,8%[46.1 µM]
Cc1ccc(F)cc1NC(=O)CCc1c(C)nn(-c2ccc(N3CCOCC3)nn2)c1C,4%[46.1 µM],-5%,·,·,-1.4%,9%,·,·
O=C(Nc1ccccc1Cc1ccccc1)C1CC(=O)N(c2ccc3c(c2)OCCO3)C1 (stereo not given),-12%,1%,-6%,-1%,-3.9%,4%,-2%,?
NC(=S)N/N=C1\CC(n2nnn(-c3cccc(Cl)c3)c2=S)C2COC1O2 (stereo not given),-14%,·,21%,·,·,-20%,-30%,?
CCOc1ccc(-c2nnc(SCC(=O)Nc3ccc(C)cc3C)o2)cc1,-19%[46.1 µM],2%,·,·,-3.6%,-8%,·,-16%[46.1 µM]
Cc1ccc(C(=O)c2cn(Cc3ccc(Cl)cc3)c3nc(C)ccc3c2=O)cc1,?,-17%,1%,·,-8.8%,1%,·,-25%[46.1 µM]
S=C(Nc1cccnc1)NC1CC2CCC1C2 (stereo not given),-27%[46.1 µM],·,3%,13%,·,4%,17%,-2%[46.1 µM]
O=C(NCC(c1ccccc1Cl)N1CCCC1)c1ccc(N2CCCC2=O)cc1 (stereo not given),?,·,1%,·,·,16%,0%,6%[46.1 µM]
O=C(C1=C[C@H](c2csc3ccccc23)C[C@H](OCCCCO)O1)N1CCN(Cc2ccc3c(c2)OCO3)CC1,·,·,-1%,-14%,·,-16%,-8%,·
